Source: PubChem
S aureus helic – inhibitors of S. aureus replicative helicase, primary screen, biochemical, fluorescence unwinding readout; replicative DNA helicase (DnaC/DnaB), Staphylococcus aureus; purified S. aureus helicase, fluorescence unwinding assay; about half of the hits fall short of the stated cut; inhibition, %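 (tested at about 80 µM)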; actives 0.05% (n = 120,000); AID 485395, 2010;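 active = both duplicates at 50% or more, or one of them with a favoured structure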;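 also: 0% = mean of negative control wells and 100% = mean of positive control wells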
MgrA DNA FP – S. aureus MgrA activity modulators, primary screen, biochemical, S. aureus Newman, fluorescence polarization; AID 602314, 2012; inhibition, %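 (about 10 µg/mL by stock and volumes)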; MgrA-DNA binding; actives 0.13% (n = 84,000);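 active = above 50% in either of two replicates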;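 also: 0% = protein plus DNA without compound and 100% = DNA alone without protein; higher means less MgrA bound to DNA so lower polarization; one replicate is shown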
* hit, by the source's call; / = no result given; & = joins results of further samples.

| mol | S aureus helic | MgrA DNA FP |
| --- | --- | --- |
| Cc1cc(N2CCOCC2)ccc1/C=C1\NC(=O)N(Cc2ccccc2)C1=O | 5 | 4.0 |
| CCOC(=O)c1ccc(NC(=O)c2cc3ccccc3c(=O)s2)cc1 | -13 | / |
| Nc1cccc(OCCOCCOc2cccc(N)c2)c1 | -5 | / |
| C/C(N)=C(/C#N)C(=O)CSc1nnc2c(Cl)cc(Cl)cn12 | 0 | / |
| C=CCn1nnnc1SCC(=O)Nc1cccc(C(F)(F)F)c1 | -2 | / |
| O=C1CSc2ccc(C(=O)N3CCN(Cc4ccc5c(c4)OCO5)CC3)cc2N1 | 8 | / |
| CC1(C)CC(=O)c2ccc(OCc3ccc(F)cc3)cc2O1 | / | -1.8 |
| O=C1N=c2ccc(Br)cc2=C1c1sc(=S)n(NC(=O)c2ccccc2[N+](=O)[O-])c1O | / | 0.4 |
| CCOc1cccc2c1Oc1nc(-c3ccccc3)nc(SCC(=O)N(CC)CC)c1C2 | 11 | -2.0 |
| CCOC(=O)c1cc(CC)sc1NC(=O)C(Cl)(Cl)Cl | / | -2.2 |
| CNC(=O)CCCN1C(=O)CSc2ncccc21 | -5 | / |
| N#CC(C#N)=C(C#N)c1ccc(-c2ccccc2)[nH]1 | 12 | 14 |
| Clc1ccc(CSc2cccs2)cc1 | / | 0.6 |
| Cc1noc(C)c1COC(=O)/C=C/c1cn(-c2ccccc2)nc1-c1cc2ccccc2oc1=O | 26 | / |
| COC(=O)c1ccc(S(=O)(=O)N(C)C)o1 | 5 | 2.1 |
| COc1ccc(NC(=O)CCn2c(=O)sc3ccccc32)cc1 | 5 | / |
| Cn1c(NC(=O)c2ccco2)c(-c2ccccc2)c(=O)c2ccccc21 | 9 | / |
| O=C(OC1CC1(Cl)Cl)c1ccccc1 (stereo unspecified) | / | -2.5 |
| COC(=O)/C=C/c1cn(C2OCC(CO)C2O)c(=O)[nH]c1=O (stereo unspecified) | / | 6.4 |
| O=C(CNC(=O)c1sc2ccccc2c1Cl)Nc1ccc(-n2cnnn2)cc1 | -1 | / |
| Cc1c(-c2cc(NC(=O)c3ccccc3)n[nH]2)sc2ccc(Cl)cc12 | / | -1.2 |
| Cc1nn(CC(C)C)c(Cl)c1C(=O)NCc1cccnc1 | -6 | / |
| Cc1ccc(CNC(=O)c2c[nH]c3ccc(S(=O)(=O)Nc4ccc(C)cc4C)cc3c2=O)cc1 | -2 | -2.6 |
| Cc1c2occ(C(C)(C)C)c2cc2c3c(c(=O)oc12)CCCC3 | 12 | 2.8 |
| Fc1ccc(C2Nc3ccc(OC(F)(F)F)cc3C3C=CCC32)cc1 (stereo unspecified) | -19 | -3.1 |

The final three compounds of the section before come first, to join the parts:
| mol | S aureus helic | MgrA DNA FP |
| --- | --- | --- |
| Cc1ccc(CNC(=O)c2c[nH]c3ccc(S(=O)(=O)Nc4ccc(C)cc4C)cc3c2=O)cc1 | -2 | -2.6 |
| Cc1c2occ(C(C)(C)C)c2cc2c3c(c(=O)oc12)CCCC3 | 12 | 2.8 |
| Fc1ccc(C2Nc3ccc(OC(F)(F)F)cc3C3C=CCC32)cc1 (stereo unspecified) | -19 | -3.1 |
| CCN(Cc1ccccc1)c1ncnc2onc(-c3ccc(F)cc3)c12 | 14 | / |
| COc1ccc(NC(=O)c2c[nH]c(=O)n(-c3ccccc3)c2=O)cc1 | 2 | / |
| COc1ccc(/C=C/c2nc3scc(-c4cccs4)c3c(=O)o2)cc1 | / | -1.8 |
| C/C(=N\NC(=S)NC1CCCCC1)c1ccc(S(=O)(=O)NCc2ccco2)cc1 | 2 | / |
| O=c1[nH]c(=O)n(Cc2c(Cl)cccc2Cl)cc1F | / | 0.5 |
| c1ccc(CSc2nnc3c4ccccc4n(Cc4ccccc4)c3n2)cc1 | 7 | -1.1 |
| Cc1csc(=O)n1CCC(=O)OCC(=O)Nc1ccccc1 | 4 | / |
| Cn1nnnc1SCC1=C(C(=O)O)N2C(=O)C(NC(=O)C(OC=O)c3ccccc3)C2SC1 (stereo unspecified) | / | 6.6 |
| Cc1c(C(=O)O)cccc1C(=O)c1ccccc1 | 3 | -3.0 |
| CN(C)CCSc1nnc(-c2ccccc2)o1 | 4 | -0.4 |
| CC(NC(=O)COc1ccc2ccccc2c1)C(=O)O (stereo unspecified) | -9 | / |
| CC(C)(C)OC(=O)/C=C/c1c(Cl)nc2sccn12 | 5 | -0.3 |
| O=C(c1ccccc1)c1ccccc1NS(=O)(=O)c1ccccc1 | -14 | / |
| CCOC(=O)c1[nH]c2ccc(C)cc2c1NC(=O)OC | 4 | -2.0 |
| O=C(CSc1ccccn1)Nc1ccc2c(c1)OCCO2 | / | -2.7 |
| O=S(=O)(CCSc1ccc(C(F)(F)F)cn1)c1ccccc1 | / | -0.4 |
| CC1=NN(c2ccc(Cl)c(C(=O)O)c2)C(=O)/C1=C\c1ccc(-c2cc([N+](=O)[O-])ccc2Cl)o1 | / | 0.3 |
| NC(=O)c1cc[n+](CC(=O)N2CCOCC2)cc1 | 28 | / |
| Nn1c(Nc2ccccc2)nc2sc3c(c2c1=O)CCC3 | -12 | 0.3 |
| CCc1ccc(-c2cc(C)no2)cc1S(=O)(=O)Nc1ccccc1 | 13 | / |
| O=c1oc(-c2ccc(F)cc2)nc2sc3c(c12)CCCC3 | -13 | 0.9 |
| COC(=O)c1sc2nc(SCC(=O)N(C)c3ccccc3)n(N)c(=O)c2c1C | 17 | 0.8 |
| CC(C)(C)C1CCc2c(sc(NC(=O)c3cc4n(n3)C(C(F)(F)F)CC(c3ccco3)N4)c2C(N)=O)C1 (stereo unspecified) | / | -0.1 |
| CCOC(=O)N1CCN(S(=O)(=O)c2ccc(-n3cnnn3)cc2)CC1 | -27 | / |
| CN(/N=C\C=C\c1ccccc1)c1ccccn1 | -5 | 1.9 |

New compounds follow:
structure	S aureus helic	MgrA DNA FP
O=C(NC1CCCC1)c1nnc(Cc2ccc(Cl)cc2)o1	8	-0.4
Cc1[nH]c2ccccc2c1C(Nc1nccs1)c1ccc(C(C)C)cc1 (stereo unspecified)	7	2.6
CC(C)NC(=O)COc1ccc2ccccc2c1	-24	/
CCn1c(=NC(=O)c2ccc(S(=O)(=O)N3CCOCC3)cc2)sc2ccccc21	11	/
Cc1ccc(N=C(N)N=C(N)N)cc1Cl	/	1.0
CN(C(=O)NC(=O)C1=C(N2CCOCC2)/C(=C\c2ccccc2)CC1)S(C)(=O)=O	-9	/
Cc1cc(C)cc(NC(=O)NC(C)(C)C)c1	9	4.0
O=C1Nc2ccccc2C1Cc1ccc(N=Cc2cc(Cl)cc(Cl)c2O)cc1 (stereo unspecified)	/	1.6
Cn1c(=O)c2c(=S)nc(C3CC3)[nH]c2n(Cc2ccccc2)c1=O	12	/
CCNC(=O)C1CCN(c2ncnc3c2nc2n3CCCCC2)CC1	-22	/
O=C(O)CSc1c2c(nc3cc(C(=O)NC4CCCCCC4)ccc13)CCC2	15	4.2
CC(OC(=O)C1CC1)C(=O)Nc1ccnn1C(C)C (stereo unspecified)	-3	/
Cc1ccc(-c2nn(CCC(=O)N3CCCC3)c(=O)c3ccccc23)cc1	5	1.8
CC(C)Sc1c(Cl)cccc1NC(=O)Nc1ccccc1	/	-0.1
COc1ccc(NC(=O)[C@@H]2CCCN2S(=O)(=O)c2ccc(C)cc2)cc1	-23	/
O=C(O)c1ccc(N2CCCC2=O)cc1O	6	/
CC(C)COc1ccc(C(=O)NN)cc1	1	/
O=C(COC(=O)C1CCN(S(=O)(=O)c2cccs2)CC1)c1cc2ccccc2o1	-81	/
COC(=O)C(O)(CC(=O)O)C(F)(F)F (stereo unspecified)	6	/
O=C(CCCN1C(=O)/C(=C/c2ccccc2)SC1=S)Nc1ccc(C(=O)O)cc1	-21	/

Structures from the list above with a cyano group, in the order listed:
structure	S aureus helic	MgrA DNA FP
C/C(N)=C(/C#N)C(=O)CSc1nnc2c(Cl)cc(Cl)cn12	0	/
N#CC(C#N)=C(C#N)c1ccc(-c2ccccc2)[nH]1	12	14

Next part
structure	S aureus helic	MgrA DNA FP
CCC(C)(C(=O)NC1CCCC1)N(Cc1ccco1)C(=O)c1ccccn1 (stereo unspecified)	9	/
Cc1ccc(N2CCN(C(=O)Cn3nc(Cc4cccnc4)c4ccccc4c3=O)CC2C)cc1 (stereo unspecified)	11	1.4
S=C(NCc1ccco1)N/N=C/c1cccnc1	/	-0.6
Cc1onc(-c2ccccc2Cl)c1C(=O)Nc1cccc2cccnc12	/	-1.1
O=C(O)CC(Cc1ccccc1)C(=O)O (stereo unspecified)	20	/
CC(SC1CC(=O)N(c2ccccc2)C1=O)C(=O)O (stereo unspecified)	/	4.2
O=C(COC(=O)CCc1c[nH]c(=O)[nH]1)Nc1cccc(Cl)c1	2	3.1
CCN(CC)c1ccc2nnc(CCC(=O)NCC3CCN(Cc4ccc(C)cc4)C3)n2n1 (stereo unspecified)	-12	/
Cc1cc(SCC2=NNC(=O)/C2=C/N(C)C)c(Cl)cc1Cl	/	1.9
COc1ccc(S(=O)(=O)N2CCN(C(=O)c3cc(-c4ccccc4OC)n[nH]3)CC2)cc1	16	-0.6
Cc1[nH]n(-c2ccccc2)c(=O)c1/C=C1\C=c2ccccc2=NC1=O	1	3.7
O=C(COc1ccc(Br)cc1)OC1CCS(=O)(=O)C1 (stereo unspecified)	-14	/
O=c1/c(=C/c2ccccc2)sc2nc(-c3ccco3)nn12	4	/
O=C(/N=C1\N=C2N=CC=CN2Cc2ccccc21)Nc1ccc(Cl)cc1	1	/
CC1CCCC(C)N1C(=O)NC(=O)c1ccccc1 (stereo unspecified)	-7	/
S=C(SCc1nnc(-c2ccc(Cl)cc2)o1)N1CCCC1	-3	/
Oc1ccc2c(CN3CCCCC3)c(O)ccc2c1CN1CCCCC1	20	0.0
CCC(C)(C(=O)NC1CCCC1)N(C(=O)CC1NC(=O)NC1=O)c1c(C)n(C)n(-c2ccccc2)c1=O (stereo unspecified)	-22	/
COc1ccc(N2CCN(CCCNC(=O)NC3CC(=O)N(c4ccc5c(c4)OCCO5)C3)CC2)cc1 (stereo unspecified)	4	/
COc1ccc(CNC(=O)[C@@H]2CCCN2C(=O)OC(C)(C)C)cc1OC	10	/

The last four entries of the part above open the next one.
structure	S aureus helic	MgrA DNA FP
Oc1ccc2c(CN3CCCCC3)c(O)ccc2c1CN1CCCCC1	20	0.0
CCC(C)(C(=O)NC1CCCC1)N(C(=O)CC1NC(=O)NC1=O)c1c(C)n(C)n(-c2ccccc2)c1=O (stereo unspecified)	-22	/
COc1ccc(N2CCN(CCCNC(=O)NC3CC(=O)N(c4ccc5c(c4)OCCO5)C3)CC2)cc1 (stereo unspecified)	4	/
COc1ccc(CNC(=O)[C@@H]2CCCN2C(=O)OC(C)(C)C)cc1OC	10	/
O=S(=O)(Nc1ccncc1)c1ccc2ccccc2c1	0	-0.6
CCOC(=O)N1CCC(NC(=O)Nc2ccc3c(c2)CCO3)CC1	/	-1.4
O=C(O)CCC(=O)Nc1ccc(Oc2ccccc2)cc1	/	-2.4
N#CCCN(Cc1ccccc1)C(=O)c1nccnc1C(=O)O	-15	/
N#CCCn1c(SCC(=O)Nc2cccc3ccccc23)nc2ccccc21	6	/
CCOc1ccc(OCCCCn2ccnc2)cc1	4	-0.7
COc1ccc(N=c2oc3ccccc3cc2C(N)=O)cc1	2	/
Cc1ccc(NC(=O)CSc2nc(C)cc(C)c2C#N)cc1	1	0.4
O=C(CSc1nc2ccccc2s1)N1CCCCC1	6	/
Brc1ccc(-c2noc(-c3ccccc3)n2)o1	6	-0.3

Record cards, from the list above.
O=S(=O)(Nc1ccncc1)c1ccc2ccccc2c1 reads S aureus helic: 0; MgrA DNA FP: -0.6
N#CCCN(Cc1ccccc1)C(=O)c1nccnc1C(=O)O reads S aureus helic: -15; MgrA DNA FP: /

Carrying on.
structure	S aureus helic	MgrA DNA FP
COc1ccc(NS(=O)(=O)c2ccc3c4c(cccc24)C(=O)S3)cc1	5	3.4
CC1CN(S(=O)(=O)c2ccc(C3CCCCC3)cc2)CC(C)O1 (stereo unspecified)	-13	/
COc1ccc(C(CC(=O)c2cccs2)SCc2ccco2)cc1OC (stereo unspecified)	-5	/
Cc1c(Cl)c(=O)[nH]c2ccccc12	/	-3.9
CC(=O)N1CCc2cc(NC(=O)CC(=O)c3ccccc3)ccc21	11	/
CC(=O)Nc1ccc([N+](=O)[O-])cc1	/	-2.8
O=c1c2cccnc2nc(SCc2ccc(Cl)cc2)n1Cc1ccccc1	6	-2.0
CC(=O)N1CCn2c1nc1ccccc12	-1	-2.4
FC(F)(F)c1ccncc1-c1nnc(-c2ccccc2)o1	/	-4.8
O=C(O)C1CCCCC1c1nc2ccccc2s1 (stereo unspecified)	-4	/
CCOc1ccc(/C=C2/SC(=Nc3ccccc3)NC2=O)cc1OC	/	-0.7
CC(Oc1ccccc1)c1nc(-c2cccnc2)no1 (stereo unspecified)	-21	/
O=C(CN1CCN(CC(=O)Nc2ccccc2F)CC1)Nc1ccc(F)cc1	5	/
CCc1cc(=O)oc2c(CN(C)C)c(O)c(Cl)cc12	10	4.7
C=CCn1c(SC(C)C#N)nnc1-c1ccc(Br)cc1 (stereo unspecified)	19	/
O=C(O)COCc1nc2ccccc2[nH]1	/	-3.5
COc1cccc2cc3c(=O)n(-c4ccccc4)nc-3oc12	9	/
Cc1nccn1CCC1CCNCC1	4	-4.3
Cc1c(NC(=O)NNc2ccccc2)sc2nc(-c3ccc(Cl)cc3)nn12	-18	/
O=S(=O)(c1ccc(SC2Cc3ccccc3C2O)nc1)N1CCOCC1 (stereo unspecified)	-11	/
O=C1NC(=O)C(c2ccccc2)(c2ccccc2)N1	-20&10	0.3&-0.6&0.7
CCCCSc1nnc2c(n1)OC(c1ccco1)Nc1ccccc1-2 (stereo unspecified)	/	1.7
COc1ccccc1CN1CC(C(=O)NCC2CCCO2)CC1=O (stereo unspecified)	-7	/

These rows are one share of the data; rates above refer to the full screens.
